Bioassay records (PubChem BioAssay)
VACV mCherry inh: qHTS for Stage-Specific Inhibitors of Vaccinia Orthopoxvirus: mCherry Reporter Primary qHTS; Vaccinia virus mCherry reporter infection, fluorescence; about a quarter of the inactives have no number; Potency, µM (titrated, usually from 36.5 µM), for the others: top-dose activity change, negative = inhibition, hits mostly inhibitors; 0.63% of 310,000 active; AID 720579, 2013; active = well fitted inhibition curve with a large enough effect; inconclusive = small, poorly fitted or top-dose-only effect; inactive = no such curve, though single readings can be large or run the other way; tested in A549 cells; also: nearly all actives have a fitted effect of over 35% in size; inactives centre near -10
VACV Venus inh: qHTS for Stage-Specific Inhibitors of Vaccinia Orthopoxvirus: Venus Reporter Primary qHTS; AID 720580, 2013; Vaccinia virus Venus reporter expression, fluorescence; Potency, µM (top dose mostly 36.5 µM), for the others: top-dose activity change, negative = inhibition, usual class: inhibitors; 0.46% of 330,000 active; active means well fitted inhibition curve with a large enough effect; inconclusive means small, poorly fitted or top-dose-only effect; inactive means no such curve, though single readings can be large or run the other way; tested in A549 cells; also: nearly all actives have a fitted effect of over 30% in size; inactives centre near -10
* hit, by the source's call; i = inactive; ? = inconclusive; / = no result given; [ ] = dose if it differs, or a comment. % is scaled to controls: 0 for no effect and ±100 for the full control effect; potency is read from the fitted curve at half-maximal effect.

The first 3 compounds, ahead of the listing:
SMILES	VACV mCherry inh	VACV Venus inh
N#CCCN(C(=O)COc1ccc(F)cc1Br)c1ccccc1F	i	-2%
Cc1nnc(N/N=C/c2c(Cl)cccc2Cl)n1N	-22%	-16%
C/C(=N\N(C)C)c1ccc(OCCOc2ccc([N+](=O)[O-])cc2)cc1	-18%	-5%

Main list, previewed entries included:
SMILES	VACV mCherry inh	VACV Venus inh
N#CCCN(C(=O)COc1ccc(F)cc1Br)c1ccccc1F	i	-2%
Cc1nnc(N/N=C/c2c(Cl)cccc2Cl)n1N	-22%	-16%
C/C(=N\N(C)C)c1ccc(OCCOc2ccc([N+](=O)[O-])cc2)cc1	-18%	-5%
O=C(CCC(=O)NC1CC1)Nc1nnc(C2CCCCC2)s1	-19%	-14%
O=C(COC(=O)C1CC2CCCC(C1)C2=O)NNC(=O)c1ccccc1Br (stereo not given)	-2%	-13%
CC1(Cc2ccc3c(c2)OCO3)NC(=O)NC1=O (stereo not given)	-13%	-4%
CN(C)CCNC(=O)NC(=O)c1ccc(Cl)cc1	-7%	-4%
CC12CCC(=O)N1C(C(=O)Nc1nc3c(F)cc(F)cc3s1)CS2 (stereo not given)	-25%	-22%
O=c1c2cc(Cl)ccc2nc(-c2ccc([N+](=O)[O-])cc2)n1O	-15%	1%
CCN(c1cccc(C)c1)S(=O)(=O)c1c(C)[nH]c(=O)[nH]c1=O	-12%	-9%
COc1ccc(N2CCN(C(CNC(=O)C(=O)NCCCN(C)C)c3cccnc3)CC2)cc1 (stereo not given)	-13%	-3%
Cc1ccc(NC(=O)CCC(=O)N2Cc3ccccc3Oc3ncccc32)cc1Cl	-5%	-13%
COc1ccc(-c2csc(NC(=S)NC(=O)/C=C/c3ccccc3)n2)cc1Br	-19%	-5%
CCCN(CCC)S(=O)(=O)c1ccc(C(=O)Nc2nnc(CSC)o2)cc1	?	?
CCCc1cc(=O)oc2cc(OCC(=O)N3C[C@H]4C[C@@H](C3)c3cccc(=O)n3C4)ccc12	1%	2%
CCCCOc1ccc(C(=O)Nc2cccc(C)n2)cc1	-15%	-11%
CC(/C=C1\SC(=S)N(NC(=O)c2ccc(O)cc2)C1=O)=C\c1ccccc1	i	-6%
Cc1ccc(NC(=O)c2ccc(S(=O)(=O)N3CCCC3)cc2)cc1	-6%	?
CCc1nnc(NC(=O)CCC(=O)NC2CCCc3ccccc32)s1 (stereo not given)	-7%	-9%
COc1cccc(-c2cnc(C(O)c3ccc(Cl)c(Cl)c3)[nH]2)c1 (stereo not given)	-2%	4%
O=C1CCc2cc(S(=O)(=O)NC(C(=O)Nc3ccc(F)cc3)c3ccccc3)ccc2N1 (stereo not given)	-4%	7%
COc1ccc(NC(=O)c2ccco2)cc1NC(=O)c1cccc(C)c1OC	-14%	-20%
O=C(NC1CC(=O)N(c2cccc(F)c2)C1)c1ccc(S(=O)(=O)N2CCCC2)cc1 (stereo not given)	-12%	-15%
Cn1c(=O)cc(SCC(=O)NCc2ccc(F)cc2)c2ccc(Cl)cc21	-19%	-15%
CN(C)CCCNC(=O)c1cc(C(=O)c2ccc(F)cc2)c[nH]1	?	3%

(further entries)
SMILES	VACV mCherry inh	VACV Venus inh
CSCCC(c1nnnn1C1CCCC1)N1CCN(C/C=C/c2ccccc2)CC1 (stereo not given)	21%	-5%
COc1cccc(CC2(CO)CCCN(S(=O)(=O)N(C)C)C2)c1 (stereo not given)	-6%	-3%
O=C(Cn1cc(C(=O)C2CC2)c2ccccc21)NC1CCCC1	-4%	-13%
COc1ccc(F)cc1-c1cc(NC=O)c2ncc(-c3cccc(C(F)(F)F)c3)n2c1	?	-23%
Cc1ccc(C(=O)CC(=O)c2ccc(C)cc2O)cc1	i	-17%
Cc1ccc(/C=C/c2nnc(-c3cccc(C)c3)o2)cc1	-25%	-3%
O=C(COC(=O)/C=C/c1nc2ccccc2s1)Nc1ccccc1Oc1ccccc1	-8%	-5%
COCCNC(=O)c1cc2c(=O)[nH]c3ccccc3c2s1	-11%	-1%
Cc1noc(C)c1COc1ccc(C(=O)NCC2(N(C)C)CCCCC2)cc1	-1%	-7%
O=C(NCC1CCCO1)c1cccc(N2C(=O)C3C4C=CC(C4)C3C2=O)c1 (stereo not given)	-10%	-6%
Cc1ccc(/C(O)=C2\C(=O)C(=O)N(Cc3cccnc3)C2c2ccccc2[N+](=O)[O-])cc1 (stereo not given)	-2%	11%
Cc1cccc(NC(=O)COC(=O)CN2C(=O)C3CCCCC3C2=O)c1C (stereo not given)	i	-5%
CCn1c(=O)cc(SCC(=O)N2CCN(c3ccccn3)CC2)c2ccccc21	9%	-14%
COc1ccc(-c2ccc(N)cn2)cn1	-4%	-3%
CN1C(=O)N(C)c2cccc3cccc1c23	-21%	-4%
Cc1oc2c(c1C(=O)Nc1ccc(Cl)cc1F)C1=NCCN1C=N2	i	-5%
Cc1cccc2nc(Cn3c(=O)n(-c4ccc(Cl)cc4)c(=O)c4c5c(sc43)CCC5)cc(=O)n12	-9%	-2%
CCOC(=O)c1c(-c2ccccc2)oc2ccc(NS(=O)(=O)c3ccc(C)cc3)cc12	-27%	-23%
CCC(=O)N1CCN=C1SCc1ccccc1	i	-5%
O=C(Nc1cccc(O)c1)C1CCCN1C(=O)OCc1ccccc1 (stereo not given)	/	-9%
COc1cc(C2NC(=O)NC(C)=C2C(=O)OCC2CCCO2)cc(OC)c1OC (stereo not given)	0%	-12%
CN1c2ccsc2C(O)=C(C(=S)Nc2ccccc2)S1(=O)=O	-7%	4%
COc1ccc2c(c1OC)C(=O)N1c3ccccc3N=C(c3ccc([N+](=O)[O-])cc3)CC21 (stereo not given)	-8%	0%
Cc1cccc(OCCC(=O)Nc2ccc(F)c(F)c2)c1	-9%	-12%
Cn1c(=O)c2c(-c3ccc(Br)cc3)n(CCc3ccccc3)cc2n(C)c1=O	-7%	-9%

Continuation:
SMILES	VACV mCherry inh	VACV Venus inh
CCOc1nc(OCC)c2cnn(C)c2n1	i	-1%
CC(=O)Nc1nonc1-c1nnc(SCc2ccc(F)cc2)n1C	-4%	-9%
CC1(C)CC(=O)c2cc(C(=O)N3CCN(CCO)CC3)c(=O)n(-c3ccc(Cl)cc3)c2C1	-8%	-6%
Cc1c(C(=O)CN2CCN(c3ccccc3)CC2)c2ccccc2n1C	?	-15%
O=C(NCCc1ccccc1F)[C@@H]1CSC2c3ccccc3C(=O)N21 (stereo not given in full)	-2%	2%
O=C(O)COCCN1CCN([C@H](c2ccccc2)c2ccc(Cl)cc2)CC1	-2%	-9%
COCCNC(C(=O)Nc1ccc([N+](=O)[O-])cc1Br)c1ccccc1 (stereo not given)	-5%	-24%
O=c1c2sc(-c3ccccc3)cc2nc2n1CCCCC2	i	-19%
COc1cc(C(=O)Nc2ccc(Cl)c(C(F)(F)F)c2)cc(OC)c1OC	?	?
CC(C)Oc1ccccc1-c1nc(SCC(=O)O)n[nH]1	-10%	-7%
CC(C)C[C@@H](CN1CCCC1CN1C(=S)NC[C@@H]1Cc1ccc(O)cc1)N1C[C@H](Cc2ccccc2)N(CC2CCCCC2)C1=S (stereo not given in full)	-30%	?
Cc1ccc(NC(=O)C2(C)Cc3ccccc3C(=O)O2)c(C)c1 (stereo not given)	2%	-2%
C=C(C)CN(CC)c1nc(N)c2c(N)nc3c(c2c1C#N)CC(=O)N3C12CC3CC(CC(C3)C1)C2	?	-24%
Cc1nn(C)cc1C(C(=O)NC1CCCCC1)N(C(=O)Cn1nnc2ccccc21)c1ccc(F)cc1 (stereo not given)	i	-1%
Fc1ccc(NC(=S)NCCc2ccc(Cl)cc2)cc1	i	-16%
Cc1nnc(SCc2cc(=O)c3cc(F)ccc3[nH]2)n1C	-2%	1%
Cc1nc2ccccc2c(=O)n1/N=C/c1cn(-c2ccccc2)nc1-c1cccs1	-29%	-21%
COc1ccc(CCN2CC(C#N)=C3c4cc(OC)c(OC)cc4CCN3C2)cc1OC	?	?
O=C1C(c2ccc(F)cc2)N(CCc2ccc(Cl)cc2)C(=O)CN1C1CCCCC1 (stereo not given)	-3%	-8%
COc1ccc(NC(=S)NNC(=O)c2ccc(S(=O)(=O)N3CCOCC3)cc2)cc1	-5%	-5%
Cc1nc(N2CCOCC2)c2c(C)c(C(=O)Nc3ccccc3Cl)sc2n1	-12%	0%
Cc1cccc(OCCn2c(SCC(=O)O)nc3ccccc32)c1	-14%	8%
COc1ccc(CC(=O)Nc2cc3oc4ccccc4c3cc2OC)cc1	?	?
CCc1nnc(SCC(=O)Nc2cccc(C(F)(F)F)c2)c2cc3oc(C)cc3n12	-7%	-12%
O=C(CSc1nnc(Cc2cc(=O)[nH]c(=O)[nH]2)n1-c1ccc(F)cc1)N1CCCCC1	7%	10%

Continuation.
SMILES	VACV mCherry inh	VACV Venus inh
Cc1ccc(C(=O)N2CC(=O)Nc3ccc(F)cc3C2c2ccccc2)cc1[N+](=O)[O-] (stereo not given)	?	?
C[C@H](NC(=O)C1CCN(S(=O)(=O)c2ccccc2)CC1)C(=O)NC1CC1	-20%	-14%
Nc1cc2nc[nH]c2cc1N	-13%	-11%
CCCCn1[nH]c(-c2ccccc2)cc1=O	-2%	-15%
COc1cccc(OCc2cc(C(=O)N(C)C3CCOCC3)no2)c1	-13%	-3%
CC(C)C[C@H]1CN=C(Nc2ccccc2)N1CCCC1CCCCC1	-4%	-18%
CCCCCCNC(=O)c1c(O)c2cccc3c2n(c1=O)CCC3	/	-4%
CC(=O)Nc1ccc(S(=O)(=O)NC2(C(F)(F)F)C(=O)Nc3c2c(=O)[nH]c(=O)n3-c2cccc(Cl)c2)cc1 (stereo not given)	-6%	0%
O=C(NCCN1CCCC1=O)C1CCC(=O)N(CCc2ccc(Cl)cc2)C1 (stereo not given)	i	-3%
c1ccc2cc(CCCc3cc4ccccc4cn3)ncc2c1	-19%	-22%
NC(=O)CSc1nc2sc(-c3ccccc3)cc2c(=O)n1N	i	-7%
CCOc1ccc(-c2nnc(-c3ccncc3)o2)cc1OCC	i	-6%
N#Cc1nc(-c2ccc(COc3ccc(Cl)cc3)o2)oc1N1CCCCC1	-6%	-3%
CCN(CC)c1ccc(NC(=O)CSc2nc3nc(C)cc(C)c3c(=O)[nH]2)cc1	-27%	-13%
CC(C)N1CCC1(C)C(=O)Nc1ccc2scnc2c1 (stereo not given)	13%	1%
CCN(CC)C(=O)CCC(=O)Nc1ccc(C(=O)OC)cc1	/	8%
Cc1cc(NC(=O)CSCc2nc(-c3cccc(F)c3)oc2C)no1	i	-5%
CCOC(=O)C1(Cc2cccc(F)c2)CCN(C(=O)Cc2cccnc2)CC1	-11%	0%
CCOC(=O)c1ccc(Nc2c(CC)c(C)nc3ncnn23)cc1	-9%	-22%
CC1(C)SC2C(NC(=O)C(N)c3ccccc3)C(=O)N2C1C(=O)O (stereo not given)	i	-9%
CCOc1ccccc1NC(=O)CN1C(=O)C(=O)N(Cc2ccco2)C1=O	i	1%
CN(C)S(=O)(=O)c1ccc2c(c1)N(CC(=O)Nc1cccc(C(F)(F)F)c1)C(=O)CS2	-19%	-13%
CCOc1ccc2oc(C(=O)NCC(c3ccco3)N(C)C)c(C)c2c1 (stereo not given)	?	-25%
C1=CN2CCC1C(c1ccccc1)C2 (stereo not given)	/	?
COc1ccc2[nH]c3c(c2c1)CCN1C(=O)C(CC(=O)NCCN2CCOCC2)C[C@H](C(=O)N2CCOCC2)[C@@]31C (stereo not given in full)	i	-11%

Compound profiles, as listed above. Order of screens: VACV mCherry inh, VACV Venus inh
Profile of `CC(C)N1CCC1(C)C(=O)Nc1ccc2scnc2c1` (stereo not given) → 13%, 1%
Profile of `CCCCCCNC(=O)c1c(O)c2cccc3c2n(c1=O)CCC3` → /, -4%

(further entries)
SMILES	VACV mCherry inh	VACV Venus inh
Cc1n[nH]c(=S)n(NC(=O)/C=C/C(=O)Nn2c(=S)[nH]nc(C)c2=O)c1=O	-5%	-1%
CC(C)C1C(=O)N(Cc2cn(Cc3ccco3)nn2)CCS(=O)(=O)N1Cc1ccc(-c2ccc(Cl)c(Cl)c2)cc1 (stereo not given)	-12%	?
CC(C)(C)OC(=O)N1CCC(CNC(=O)c2ccc(F)cc2)CC1	i	-8%
Cc1ccc(S(=O)(=O)CCC(=O)OCC(=O)NC(N)=O)cc1	-7%[7.34 µM]	2%[7.34 µM]
COc1ccc(NC(=O)N(C)[C@H]2C[C@H]3c4[nH]c5ccccc5c4CCN3C(=O)[C@H]2CO)cc1	i	-13%
CN1CCN(CCC2Oc3cc([N+](=O)[O-])ccc3NC2=O)CC1 (stereo not given)	3%	-6%
Cc1cccc2cc(C#N)c(SCC(=O)N3CCC(C)CC3)nc12	/	-26%

Structures shown so far containing a CF3 group (5):
SMILES	VACV mCherry inh	VACV Venus inh
COc1ccc(F)cc1-c1cc(NC=O)c2ncc(-c3cccc(C(F)(F)F)c3)n2c1	?	-23%
COc1cc(C(=O)Nc2ccc(Cl)c(C(F)(F)F)c2)cc(OC)c1OC	?	?
CCc1nnc(SCC(=O)Nc2cccc(C(F)(F)F)c2)c2cc3oc(C)cc3n12	-7%	-12%
CC(=O)Nc1ccc(S(=O)(=O)NC2(C(F)(F)F)C(=O)Nc3c2c(=O)[nH]c(=O)n3-c2cccc(Cl)c2)cc1 (stereo not given)	-6%	0%
CN(C)S(=O)(=O)c1ccc2c(c1)N(CC(=O)Nc1cccc(C(F)(F)F)c1)C(=O)CS2	-19%	-13%

Hits appear at their usual frequency. About 0.87% of those tested had a hit in this group.
